# Screens: PubChem, several laboratories
# A1 inh – inhibitors of the anti-apoptotic protein A1, read as caspase activation. MEF A1-2A-BIM cells, Caspase-Glo 3/7 luminescence, 3 h; percent of clofoctol response, vehicle zero. caspase activation, % (concentration not given with the values). 0.066% of 330,000 active. AID 2462;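 active = over half of replicate activation scores above 10%, or exactly half above 10 with the replicate mean above 10; inconclusive = replicate mean below 10 yet half the replicates above 10; inactive = over half of replicates below 10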;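 also: wells of about 30 µL received 50 nL stock; many hits fall short of the cut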
# T cruzi repl – T. cruzi replication inhibition; AID 1885; T. cruzi beta-gal in NIH3T3, luminescence, 90 h; inhibition, % (concentration not given with the values); 1.4% of 300,000 active;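 active = mean inhibition across valid replicates above about 55%, limit read from the data; inconclusive = mean below that limit but half or more replicates reach it; inactive = mean below it, under half of replicates reach it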;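 also: signal also drops with host cell toxicity which is not excluded here; 0% = plate median of DMSO wells and 100% = zero luminescence signal; higher percent means less beta-gal luminescence so fewer parasites; stock transfer was 50 nL into about 50 µL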
# LANA-H2B inh – blocks KSHV LANA binding to histone H2A/H2B. Q9QR71. cell-free LANA-H2A/H2B peptide, fluorescence polarization. inhibition, % (concentration not given with the values). 0.6% of 320,000 active. AID 2629; in the data active = inhibition mostly above about 10%, no sharp cut-off; inactive = mostly below about 6.7%;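 also: stock transfer was 7.5 nL into about 10 µL; 0% = median of vehicle wells and 100% = median of positive control wells; one replicate is shown; the record names a cut of 25% in any replicate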
# Target sequence (Q9QR71 whole entry, looked up): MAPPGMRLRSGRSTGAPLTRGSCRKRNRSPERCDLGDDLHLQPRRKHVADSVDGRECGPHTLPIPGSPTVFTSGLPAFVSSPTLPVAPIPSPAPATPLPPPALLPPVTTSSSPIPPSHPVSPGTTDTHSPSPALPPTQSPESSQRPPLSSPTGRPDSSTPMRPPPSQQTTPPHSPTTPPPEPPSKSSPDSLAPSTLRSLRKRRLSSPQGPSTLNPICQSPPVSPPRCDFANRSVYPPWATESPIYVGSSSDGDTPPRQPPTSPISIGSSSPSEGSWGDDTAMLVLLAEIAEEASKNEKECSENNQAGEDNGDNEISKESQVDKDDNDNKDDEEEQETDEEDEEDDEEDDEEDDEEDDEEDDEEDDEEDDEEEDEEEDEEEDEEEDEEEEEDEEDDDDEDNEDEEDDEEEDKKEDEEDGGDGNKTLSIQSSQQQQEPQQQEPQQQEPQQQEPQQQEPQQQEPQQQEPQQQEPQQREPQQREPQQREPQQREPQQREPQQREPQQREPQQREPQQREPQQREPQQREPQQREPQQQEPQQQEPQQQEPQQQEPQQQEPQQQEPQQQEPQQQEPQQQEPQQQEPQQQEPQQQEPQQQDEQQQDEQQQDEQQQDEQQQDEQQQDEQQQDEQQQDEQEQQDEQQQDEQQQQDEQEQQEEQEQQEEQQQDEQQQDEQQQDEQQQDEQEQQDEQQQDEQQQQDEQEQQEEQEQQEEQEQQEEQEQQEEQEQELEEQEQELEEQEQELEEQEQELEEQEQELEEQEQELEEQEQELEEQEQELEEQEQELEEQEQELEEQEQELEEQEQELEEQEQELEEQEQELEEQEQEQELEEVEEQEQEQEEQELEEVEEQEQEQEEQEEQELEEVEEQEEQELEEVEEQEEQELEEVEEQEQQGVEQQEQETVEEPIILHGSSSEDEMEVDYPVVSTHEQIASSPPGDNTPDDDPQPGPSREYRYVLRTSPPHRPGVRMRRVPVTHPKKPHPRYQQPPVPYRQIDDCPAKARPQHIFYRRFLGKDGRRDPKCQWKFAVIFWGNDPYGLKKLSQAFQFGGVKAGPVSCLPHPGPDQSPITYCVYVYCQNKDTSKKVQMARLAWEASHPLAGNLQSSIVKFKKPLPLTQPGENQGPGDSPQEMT
# ALR H2O2 inh – blocks human ALR sulfhydryl oxidase activity; P55789; purified ALR, DTT oxidation, H2O2 HRP-luminol luminescence; inhibition, % (no concentration beside the values); 3.8% of 290,000 active;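 active = mean and each replicate at 75% or more; inconclusive = only one of the two met; inactive = neither met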;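 also: stock transfer was 7.5 nL into about 7.5 µL; 0% = neutral wells and 100% = wells with inactivated enzyme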
# Beta apoptosis – blocks beta cell apoptosis; INS-1E cytokine-induced death, ATP luminescence, 48 h; percent of positive-control rescue, neutral wells zero; protection from apoptosis, % (test concentration not listed); 0.8% of 300,000 active; AID 435005;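 active = all replicates at 75% or more, or half of them and the mean; inconclusive = half reach 75% but not the mean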;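 also: 0% = cytokine-treated negative control wells and 100% = positive control rescue; higher means more ATP so stronger rescue from cytokine killing; wells of about 40 µL received 100 nL stock; the first replicate is given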
# B2AR ag – human beta-2 adrenergic receptor agonism by FAP. response, % (test concentration not listed). Am2.2-beta2AR cells, FAP receptor internalization, flow cytometry; reference of the scale not given here. AID 504454. 0.43% of 340,000 active. P07550;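 active = response above a set limit, near 3 SD of response in nonfluorescent compounds, cut at about 42% in these data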;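 also: stock transfer was 100 nL into about 11 µL; a reference agonist was the positive control; negative values mostly stem from fluorescent compounds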
# Ecoli rRNA inh – inhibitors of bacterial rRNA selective over humanized ribosomes. E. coli WT GFP vs humanized-ribosome RFP mutants, fluorescence, 24 h; stronger effect = lower value; DMSO median 0, no signal -100. GFP signal change (wild-type ribosome), % (concentration not given with the values). 1.6% of 350,000 active;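 active = significant combined selectivity score with lowered wild-type GFP, culture density cut under 30%, mutant RFP and density less affected; inactive = any of these conditions unmet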; also: one replicate is shown; some compounds called inactive have numbers as strong as hits
# Calb FLC – C. albicans growth modulation with fluconazole | growth inhibition, % (test concentration not listed) | C. albicans CaCi-2 (fluconazole-resistant clinical isolate) + fluconazole, Alamar Blue growth, 48 h | 0.57% of 300,000 active;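 active = most replicates above 75%; inconclusive = exactly half above 75%; inactive = most below 75%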;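 also: all wells also contain fluconazole at 8 µg/ml as a sub-toxic cotreatment; 0% = median of DMSO wells and 100% = median of geldanamycin control wells; wells of about 8 µL received 7.5 nL stock; the first replicate is given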
# Ecoli rRNA inh OD600 – recorded beside Ecoli rRNA inh, whose call it bears; OD600 change, %; measured here: OD600 growth;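 optical density of the mix in the first replicate; 0 = DMSO median and -100 = no signal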
# Ecoli rRNA inh RFP – further read-out of Ecoli rRNA inh, marked with its call; RFP signal change, %; measured here: RFP humanized mutant strains;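 first replicate; 0 = DMSO median and -100 = no signal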
# Starred values were filed as active, the others as inactive; ? = inconclusive; · = no result given. The list is partial; count on the stated rates, not on these rows.
smiles,Calb FLC,A1 inh,Beta apoptosis,Ecoli rRNA inh,ALR H2O2 inh,LANA-H2B inh,Ecoli rRNA inh OD600,B2AR ag,T cruzi repl,Ecoli rRNA inh RFP
N#C/C=C1\Sc2ccccc2C(=O)N1CC(=O)N1CCN(S(=O)(=O)c2ccccc2)CC1,11.5,-0.2,-0.6,·,1.0,3.8,·,-1.0,6.3,·
O=C(Cn1c2[n+](c3ccccc31)CC(O)CS2)c1ccccc1 (centres undefined),-4.1,-0.7,7.1,0.0,·,-2.6,4.0,-5.0,-8.7,1.6
O=C(O)c1ccccc1N/N=C/c1c(Sc2nnnn2-c2ccccc2)nc2ccccn2c1=O,?,1.3,-1.2,-3.3,68.0,0.1,4.0,-285.6,-0.7,0.3
COc1ccc(CC(=O)OCC(=O)Nc2ccc3c(c2)OCO3)cc1OC,17.4,-0.4,·,-0.9,-19.3,0.3,-12.7,5.4,-1.0,-3.3
COc1ccccc1C(=O)NNC1=NS(=O)(=O)c2ccccc21,-6.7,-0.2,3.0,13.5,2.0,0.9,16.2,-5.3,-12.1,0.4
COC(=O)c1cc(-c2ccc(OC)cc2)n[nH]1,1.0,-3.0,5.0,-1.6,6.1,1.0,5.6,-1.9,-6.8,-2.3
O=C1N(c2ccc(Cl)cc2)C(c2ccccc2)N2CCCN12 (centres undefined),-6.6,1.4,4.8,·,-7.4,-0.6,·,-4.9,-0.1,·
O=C(C(Cl)Cl)N1CCN(c2ccccn2)CC1,-1.0,0.5,-5.6,·,·,0.3,·,6.0,-11.6,·
Cn1c(=O)c(C(=O)NCCc2ccccc2)c(O)c2ccccc21,89.3*,-0.1,-5.4,1.7,7.1,-3.0,6.7,-4.8,6.6,3.3
S=P(N1CC1)(N1CC1)N1CC1,·,-0.6,16.7,14.6,3.2,5.8,17.5,-2.6,·,0.0
CCC(C)[C@H](NC(=O)NCc1ccc(F)cc1)C(=O)O (some centres undefined),1.3,-0.5,-5.7,8.1,-6.4,2.3,2.2,-1.7,6.4,2.4
COc1cccc(N2CC(C(=O)Nc3c(C)cccc3C)CC2=O)c1 (centres undefined),-3.3,-0.2,1.5,·,-5.6,-1.4,·,-3.2,-9.9,·
O=C(O)c1ccc(OCc2ccc(C(=O)O)o2)cc1,-4.1,-8.3,-1.6,2.0,-9.1,-1.6,8.4,0.1,-5.8,0.7
NC(=O)C1(C(N)=O)OC1c1ccccc1 (centres undefined),3.0,0.8,-6.2,7.8,-3.4,-3.4,3.3,-14.9,-6.1,-6.9
CCCCOC(=O)Nc1cc(C(=O)OC)ccc1C(=O)OC,-5.4,0.9,-1.9,·,-7.9,-1.5,·,4.7,18.5,·
Cc1ccc(-c2nnn(CC(=O)N3CCN(c4nc5ccccc5s4)CC3)n2)cc1,-1.1,0.5,-5.4,·,-1.9,-1.4,·,-6.1,-7.5,·
Cc1cccc(NCc2ccccc2O)c1C,-0.2,0.1,-1.4,·,99.5*,1.6,·,5.1,-1.4,·
CC(=O)Nc1ccc(/C=N/N2CCCCC2)cc1,-8.3,-6.2,·,25.6,30.0,4.0,13.8,0.1,-7.4,21.5
CC1CCCN(CC(O)COc2ccc(Cl)cc2)C1 (centres undefined),0.5,-0.4,4.0,2.3,-0.7,-2.8,3.7,-8.0,28.9,-5.8
O=C(NC1CCCC1)c1ccc(COc2ccccc2Br)o1,3.2,1.3,-2.4,-43.1,1.9,-1.2,-72.2,0.8,11.9,-8.7
COC(=O)c1oc2ccccc2c1NC(=O)c1ccccc1O,7.0,0.5,3.7,-23.6,1.6,0.7,-43.0,-5.6,6.1,-3.3
O=C1C2C(C(=O)N1Cc1ccco1)C1C=CC2C12CC2 (centres undefined),2.9,1.6,-9.6,·,3.4,3.6,·,-7.8,-3.4,·
Cc1ccccc1C1C(C#N)=C2N=C(N)c3c(sc4c3CCCCC4)N2C2=C1C(=O)CCC2 (centres undefined),18.4,0.2,11.1,·,-26.2,-2.1,·,-0.1,28.6,·
O=[N+]([O-])c1ccc(N/N=C/c2cn(-c3ccccc3)nc2-c2ccccc2)cc1,-6.9,0.7,14.6,·,-9.2,2.7,·,-45.6,51.6,·
CC(C)CCNC(=O)[C@H](Cc1ccccc1)N1Cc2ccccc2C1=O,3.8,0.7,2.6,1.9,·,-0.9,4.8,-7.3,2.7,3.4
O=C(Nc1nccs1)C1CC=CCC1C(=O)OCC(F)(F)C(F)F (centres undefined),·,-0.3,2.4,4.1,·,·,10.9,-3.6,·,-0.5
COc1cc(CNCCN2CCOCC2)ccc1OCc1c(Cl)cccc1Cl,-21.1,0.0,-4.1,·,-3.9,0.5,·,·,49.1,·
O=C(Nc1ccc2c(c1)OCO2)c1ccc2c(c1)OCO2,0.7,-8.6,8.2,·,-4.6,1.5,·,-6.7,-7.6,·
O=S(=O)(c1ccccc1)N(Cc1cccc(F)c1)c1ccccc1,7.1,0.4,-4.2,10.5,11.9,-7.1,4.8,6.3,8.7,4.3
COc1ccc(C(=O)N2CCCC(Nc3ccc(C(C)C)cc3)C2)c(OC)n1 (centres undefined),8.7,-0.1,5.5,-8.2,31.5,4.7,-19.3,-7.2,-5.7,-1.3
Cc1noc(C)c1COC(=O)Cc1ccc(Cl)c(Cl)c1,-3.0,2.6,-3.3,·,-4.6,1.4,·,-12.8,1.9,·
COc1ccc2cc(/C=N/NC(=O)c3ccc(CN(c4cccc(Cl)c4Cl)S(C)(=O)=O)cc3)c(Cl)nc2c1,-0.7,-0.3,-6.8,·,·,·,·,6.1,47.7,·
CCc1nc2ccccc2n1CC(=O)Nc1cc(C)on1,-6.7,-0.2,-4.5,-10.6,-6.1,-2.2,-13.3,7.2,-6.0,-1.1
CC(C)c1nc2cc(Cl)ccc2n(Cc2ccccc2)c1=O,17.4,-0.2,-4.0,2.9,·,-0.2,-18.6,-7.0,9.0,-0.6
N#CC(C#N)=C1C=CC=CN1/C(=C\c1ccccc1Cl)C(=O)c1ccccc1,·,14.4*,47.3,·,·,5.0,·,105.3*,·,·
Cc1ccc(CCNC(=O)c2ccc(NC3=NC4CS(=O)(=O)CC4S3)cc2)cc1 (centres undefined),3.0,-0.4,-5.9,7.1,1.8,1.1,10.2,-0.3,2.8,-2.8
O=C(CNC(=O)c1cccc(F)c1)N/N=C/c1ccc([N+](=O)[O-])s1,3.9,0.6,-2.8,·,-80.8,14.1*,·,-6.3,51.1,·
COc1ccc(C(=O)N/N=C(\Cc2ncc[nH]2)c2ccccc2)cc1,98.1*,-1.2,56.1,5.7,86.8*,0.3,-9.0,0.3,66.5*,5.5
C=CCNS(=O)(=O)c1ccc(OC)c(C)c1,5.4,0.1,-0.8,·,-1.9,-0.6,·,5.1,0.8,·
CC(=O)Nc1cccc(C(=O)OCc2csc(CC(=O)Nc3ccccc3C)n2)c1,·,0.4,0.3,·,-3.1,-2.9,·,-0.4,·,·
OCC1OC(n2cnc3ccccc32)CC1O (centres undefined),-9.1,2.3,-3.1,9.4,1.7,-3.5,11.8,-3.2,-8.2,0.4
COc1cc(Cl)c(C)cc1Nc1ncccn1,12.0,0.6,-4.4,0.9,·,-2.1,1.1,-7.1,-14.2,0.1
C/C(=N\O)c1ccc2[nH]ccc2c1,2.5,-0.3,-5.1,·,58.2,-0.2,·,-1.3,1.4,·
Cc1c(C(N)=O)sc2ncn(CC(=O)N(C)C3CCCCC3)c(=O)c12,-2.2,0.0,-2.6,-51.8,0.8,1.3,-75.7,-7.6,-10.0,-15.8
O=C(CC(c1ccccc1)c1ccco1)N1CCCCC1 (centres undefined),-6.1,-0.4,-4.0,·,·,5.6,·,3.5,-1.4,·
COc1ccc(S(=O)(=O)N2CCC(c3nc4ccccc4[nH]3)CC2)cc1,24.0,0.6,8.8,0.8,-2.1,-2.2,-2.1,-20.2,-2.0,-1.6
O=S(=O)(c1ccc(F)cc1)N1CCCc2ccccc21,9.3,0.7,-1.0,·,-7.3,0.7,·,·,0.9,·
O=C1OCC2=C1C(c1ccccc1)CC(=O)N2c1ccc(F)cc1 (centres undefined),1.1,-0.2,-2.4,1.7,-7.7,5.3,16.5,-5.1,-5.6,-1.0
CCOC(=O)[C@@H]1[C@H]2COc3cc(OC)ccc3[C@@H]2N2C(=O)N(c3ccc(Br)cc3)C(=O)[C@]12C,8.6,?,·,0.7,6.0,-1.4,0.2,0.1,1.5,-3.1
Cc1cc(NCCN(C)C)n2nc(-c3cccs3)cc2n1,-13.7,-0.6,-2.9,·,-5.6,4.1,·,-2.3,-8.2,·
CCn1c(CSCc2ccc(C)cc2)n[nH]c1=S,-5.2,-1.0,0.2,-26.6,2.1,-9.0,-24.0,14.8,-24.0,-9.3
O=S(=O)(c1ccc(N2CCC(c3ccc(Cl)cc3)=N2)cc1)N(CCO)CCO,36.0,0.0,-4.5,-16.3,97.6*,3.4,-15.4,7.5,8.0,14.4
O=C(O)c1cccc(Sc2cc(Cl)ccc2C(=O)O)c1,·,-0.7,-28.7,4.9,-9.2,3.7,9.3,-10.4,·,-3.2
O=C1CSC(c2cccc([N+](=O)[O-])c2)N1CCN1CCCCC1 (centres undefined),-5.8,0.0,-2.1,11.0,-17.9,9.8,13.3,6.2,-0.7,0.4
CCCC(=O)N1CCc2cc(OC)c(OC)cc2C1c1cc2cc3c(cc2[nH]c1=O)OCO3 (centres undefined),-3.3,0.3,-2.0,·,-11.5,3.7,·,-3.1,17.1,·
COc1ccc(OC)c(Nc2nc(N)c([N+](=O)[O-])c(N3CCOCC3)n2)c1,-10.0,0.0,8.0,-31.0*,-25.0,0.8,-13.4*,-2.3,13.3,1.3*

# (list continues)
smiles,Calb FLC,A1 inh,Beta apoptosis,Ecoli rRNA inh,ALR H2O2 inh,LANA-H2B inh,Ecoli rRNA inh OD600,B2AR ag,T cruzi repl,Ecoli rRNA inh RFP
Cc1ccc(S(=O)(=O)O)c(C)c1N1CCCC1=O,-4.3,0.1,5.1,·,0.7,1.4,·,4.7,-11.6,·
Cc1cc(NC(=O)COC(=O)C2CCC2)no1,?,0.1,2.9,7.1,2.2,4.0,14.9,3.1,-21.0,-0.9
CCc1ccccc1N1CSC2=C(C#N)C(c3ccccc3F)CC(=O)N2C1 (centres undefined),-2.7,0.4,-3.6,1.5,-23.5,3.9,0.4,4.0,16.4,0.9
Cc1cc(Oc2ccc(Cl)cc2)nc(-c2ccccn2)n1,-6.6,-0.6,11.7,-32.7*,-1.3,-0.1,-18.6*,-12.9,-20.8,-1.8*
O=C(CSc1n[nH]c(-c2ccncc2)n1)Nc1ccc(Cl)c(Cl)c1,1.3,-0.3,2.4,-38.5,-1.1,1.5,-52.1,8.7,-8.2,-20.1
O=C(NCC1CCCO1)c1ccc(NC(=O)c2ccc([N+](=O)[O-])cc2)cc1 (centres undefined),-3.4,0.7,2.9,6.6,·,-0.9,18.5,11.1,-12.2,4.3
Cc1ccc(Cn2c(SCc3cccnc3)nc3c2c(=O)n(C)c(=O)n3C)cc1,-8.5,-0.1,6.1,·,-0.1,-0.7,·,-22.0,-4.9,·
